Screening data: PubChem, National Center for Advancing Translational Sciences (NCATS)
D2 potentiator: human D2 receptor positive allosteric modulation. P14416. DiscoveRx D2 beta-arrestin cells, luminescence, 90 min; 100% = 57 uM dopamine signal. potentiation, % (no concentration beside the values). hit rate 0.23% among 360,000; active = potentiation of 50% or more; inconclusive = 30% to 50%; inactive = 30% or less;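 note: compound concentration not given in the record; tested on top of an EC20 dose of dopamine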
Target sequence (P14416 whole entry, looked up): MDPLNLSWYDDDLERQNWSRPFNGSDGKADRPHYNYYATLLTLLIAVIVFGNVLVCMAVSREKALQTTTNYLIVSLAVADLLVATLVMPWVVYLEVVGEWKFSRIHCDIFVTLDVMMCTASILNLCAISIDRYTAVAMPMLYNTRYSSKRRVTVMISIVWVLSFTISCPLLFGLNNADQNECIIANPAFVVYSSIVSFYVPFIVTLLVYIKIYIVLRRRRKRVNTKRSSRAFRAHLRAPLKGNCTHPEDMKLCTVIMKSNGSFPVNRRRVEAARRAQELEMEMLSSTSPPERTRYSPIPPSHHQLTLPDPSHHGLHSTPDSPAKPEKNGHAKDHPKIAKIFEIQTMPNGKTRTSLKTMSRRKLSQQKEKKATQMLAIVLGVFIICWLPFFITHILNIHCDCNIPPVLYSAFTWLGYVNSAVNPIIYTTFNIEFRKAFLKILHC
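PathHunter D2 cells, attached overnight at 37 deg C, received compound in DMSO plus dopamine at EC20 (50 nM final) for 90 min at 37 deg C. Beta-arrestin recruitment was read as luminescence after 1 h with detection reagent at ambient temperature.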
TRPML1 inh: human mucolipin-1 channel inhibition; hit rate 0.02% among 390,000; Q9GZU1; activity change, negative = inhibition, % (no concentration beside the values); TRPML1-inducible cells, Ca2+ dye fluorescence, FDSS; active compounds read low; inhibition of EC80 agonist-evoked calcium signal; in the data active means activity change below about -50%; inconclusive means about -30% to -50%; inactive means above about -30%;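 note: stimulus is agonist 54-4 at its EC80 concentration; % is set by controls: 0 for no effect and ±100 for the full control effect; compound concentration not given in the record; the text of the record puts the active cut at -80%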
Target sequence (Q9GZU1 whole entry, looked up): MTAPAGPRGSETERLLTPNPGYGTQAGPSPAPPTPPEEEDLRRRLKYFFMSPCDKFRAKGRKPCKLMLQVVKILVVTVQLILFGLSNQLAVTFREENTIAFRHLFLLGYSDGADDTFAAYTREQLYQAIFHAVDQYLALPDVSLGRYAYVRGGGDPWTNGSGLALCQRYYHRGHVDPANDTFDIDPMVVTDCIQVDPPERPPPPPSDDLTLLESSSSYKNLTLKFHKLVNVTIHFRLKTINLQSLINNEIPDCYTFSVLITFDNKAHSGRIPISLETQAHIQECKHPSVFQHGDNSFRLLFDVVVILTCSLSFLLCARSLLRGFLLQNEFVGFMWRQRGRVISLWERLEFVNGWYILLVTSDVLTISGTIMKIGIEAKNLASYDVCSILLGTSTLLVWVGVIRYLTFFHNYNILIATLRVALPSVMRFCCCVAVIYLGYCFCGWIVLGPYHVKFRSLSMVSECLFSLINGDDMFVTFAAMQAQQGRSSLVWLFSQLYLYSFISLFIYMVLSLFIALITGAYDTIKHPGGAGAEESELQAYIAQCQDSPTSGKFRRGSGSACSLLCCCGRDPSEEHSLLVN
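Tet-induced TRPML1-DL cells loaded with Ca8 no-wash calcium dye were read kinetically on FDSS. Compound addition was followed by EC80 agonist 54-4 (4 uM final); inhibition was read over 110 s.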
Six1-Eya2 inh: Six1/Eya2 interaction inhibition; AlphaScreen GST-Six1/His-Eya2 binding, biochemical; active compounds read low; control for the full effect not named in the record; activity change, % (no concentration beside the values); hit rate 0.56% among 360,000; in the data active = activity change below about -65%; inconclusive = about -30% to -65%; inactive = above about -30%; note: % is set by controls: 0 for no effect and ±100 for the full control effect
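Compounds are tested against tagged Six1 and Eya2 proteins bridged by glutathione donor and nickel acceptor beads; after a one-hour incubation at 37 °C without light, AlphaScreen emission is recorded.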
PINK1 modulator: PINK1 expression modulation. PINK1 immunofluorescence, high-content cytometry, 24 h. Potency, µM (series often up to 76.6 µM), for the others: at the top dose activation (PINK1 increase), most hits filed as activators. hit rate 0.2% among 410,000; active = well fitted activation curve with a large enough effect; inconclusive = small, poorly fitted or top-dose-only effect; inactive = flat fitted curve, though single readings scatter; cell line not stated here;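 note: potency is the fitted concentration of half-maximal effect; % of control where 0% means no effect; nearly all actives have a fitted effect of over 65% in size; a mitochondrial uncoupler was the plate control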
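PINK1 protein level read as immunofluorescence by microplate cytometer in a fixed, stained stable cell line after 24 h exposure to five compound concentrations, with CCCP as control.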
TRPML1 ag: activates the human TRPML1 channel; activation, % (concentration not given with the values); TRPML1-expressing cells, Ca2+ dye fluorescence, FDSS; host cell line not named in the record; reference of the full effect not given here; AID 624414; hit rate 0.12% among 410,000; in the data active = activation above about 50%; inconclusive = about 30% to 50%; inactive = below about 30%; note: 0% is about no effect; the text of the record puts the active cut at 80%
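Agonist activity was taken from a 110 s kinetic Ca2+ dye read on the FDSS after pinning compounds onto TRPML1-DL cells. The cells were seeded at 1,500/well with Tet inducer, incubated about 16 h, then dye-loaded at room temperature.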
D2 agonist: agonists of human D2 dopamine receptor (beta-arrestin); AID 624465; activation, % (concentration not given with the values); DiscoveRx PathHunter D2 beta-arrestin, luminescence, 90 min; 100% = 57 uM dopamine signal; hit rate 0.084% among 360,000; P14416; in the data active = activation above about 40%; inconclusive = about 15% to 40%; inactive = below about 15%; note: compound concentration not given in the record; the text of the record calls up to 30% inactive
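Agonist mode: compounds alone added to overnight-plated D2 PathHunter cells for 90 min at 37 C, with 57 uM final dopamine (EC100) defining full response. Beta-arrestin recruitment detected by chemiluminescent reagent, read after 1 h at ambient temperature.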
An asterisk follows results filed as active; ? = inconclusive; · = not tested or not shown; [ ] = remark or other dose. The order is random, and some 1% of all compounds hit somewhere here.

SMILES	D2 potentiator	TRPML1 inh	Six1-Eya2 inh	PINK1 modulator	TRPML1 ag	D2 agonist
CC(=O)N1CCOc2ccc(S(=O)(=O)NCC3CCC(C(=O)Nc4ncccc4C)CC3)cc21 (configuration not stated)	-7	3	-4	1.1%	-0.4	-1.2
COCc1cc(=O)n2[nH]c(SCc3ccccc3)nc2n1	-20	-8	1	1.7%	-0.5	-4.3
CC(=O)Oc1ccccc1Cn1c(C)c(C(=O)NCc2ccccc2C(F)(F)F)sc1=O	-5	·	-14	1.3%	-0.3	8.2
Cc1cc2nc(N(Cc3cccnc3)C(=O)c3ccc(Cl)s3)sc2cc1C	·	-3	·	0.4%	0.6	·
CCc1ccccc1NNC(=O)c1cc(C)on1	-12	2	2	3.4%	-0.4	-4.4
COc1ccc2c(c1)c(C(=O)N/N=C/c1ccc(Br)cc1)c(C)n2C	-17	6	-6	7.1%	1.4	-1.7
O=C(CSc1ccc2ccccc2c1)Nn1cnnc1	-6	9	-1	1.5%	-0.2	-3.0
NNC(=O)c1cc2sccc2s1	-11	3	-3	3.1%	2.4	-3.1
COc1ccccc1CNCCS(=O)(=O)NN1CCOCC1	·	-9	0	-0.6%	-0.6	-3.3
CCCCC1CCC(C(=O)N2CC(=O)Nc3ccc(Cl)cc3C2c2ccc(F)cc2)CC1 (configuration not stated)	·	-3	·	4.4%	-0.8	·
C=CCn1c(SCC2=C(C(=O)OCC)C(C)NC(=O)N2)nnc1C1CCCCC1 (configuration not stated)	-6	-8	5	0.9%	-1.1	-1.9
COc1ccccc1-n1cnc2cc(NCc3ccccn3)ccc21	-3	-51*	-30	28%[38.3 µM]	-0.4	0.0
Nc1ccnn1Cc1ccc(Br)s1	-12	-16	-10	1.0%	0.3	-0.8
COc1cc(CN2C[C@@H](CO)O[C@@H](n3cnc4c(N5CCCC5)ncnc43)C2)cc(OC)c1OC	3	·	-1	-0.7%	-0.8	3.6
CC(C)c1ccc(NC(=O)Cn2nnc(C(=O)NCc3ccc(Cl)cc3)c2N)cc1	·	11	·	-1.8%	1.2	·

Quoted at random: four records from the list, in no set order.
SMILES	D2 potentiator	TRPML1 inh	Six1-Eya2 inh	PINK1 modulator	TRPML1 ag	D2 agonist
NNC(=O)c1cc2sccc2s1	-11	3	-3	3.1%	2.4	-3.1
COc1ccccc1CNCCS(=O)(=O)NN1CCOCC1	·	-9	0	-0.6%	-0.6	-3.3
CC(C)c1ccc(NC(=O)Cn2nnc(C(=O)NCc3ccc(Cl)cc3)c2N)cc1	·	11	·	-1.8%	1.2	·
CC(=O)Oc1ccccc1Cn1c(C)c(C(=O)NCc2ccccc2C(F)(F)F)sc1=O	-5	·	-14	1.3%	-0.3	8.2

Continuation:
SMILES	D2 potentiator	TRPML1 inh	Six1-Eya2 inh	PINK1 modulator	TRPML1 ag	D2 agonist
Cc1c(NCc2cccnc2)cccc1C(=O)O	-1	-12	-4	0.9%	0.8	-4.0
CCCCn1c(=O)[nH]c(=O)c2c1nc(CN1C(=O)c3ccccc3S1(=O)=O)n2CCC	-12	5	-2	0.7%	-0.9	-2.6
O=C(NCc1ccc(F)cc1)c1cc(C(=O)C2CC2)c[nH]1	-29	11	2	1.1%	2.3	1.4
CCn1c(O)c(/C=N/N=C2CCCC2)c2ccc(C3=NNC(=O)CC3)cc21	2	1	18	?	2.3	-4.4
Cc1ccc(C)n1C1CCS(=O)(=O)C1 (configuration not stated)	-9	-7	8	-2.1%	-0.4	-1.3
Fc1ccc(N=C2NN=C(c3cc(F)ccc3F)CS2)cc1	-36	-3	-23	?	-0.3	-19
O=c1c2ccccc2nc2n1C1(CCCCC1)Cc1ccccc1-2	0	-7	6	4.5µM*	2.6	-3.9
Cc1ccc(C(=O)N2CCCC(Nc3ccc(F)c(F)c3)C2)cn1 (configuration not stated)	-14	7	-28	-0.2%	0.3	2.1
CCC(Sc1nc2ncccc2[nH]1)C(=O)NCCc1ccccc1 (configuration not stated)	-10	2	3	0.3%	0.0	-2.4
Cc1ccc2nc(NC(=S)NC(=O)c3ccc(OC(C)C)cc3)sc2c1	-5	-8	-1	-0.3%	0.9	-3.4
O=S(=O)(Nc1cccc(S(=O)(=O)N2CCCC2)c1)c1ccc(Cl)s1	1	1	10	4.4%	0.3	6.0
CC(=O)Nc1ccc(NC(=O)Nc2ccc(C)cc2C)cc1	-3	31	1	0.9%	-0.5	-3.9
C=CCn1c(SCC(N)=O)nnc1-c1ccccc1O	10	-14	-1	-2.5%	0.9	0.4
CCOC(=O)CCc1c(C)nc(SCC(=O)O)c(C#N)c1C	-4	17	3	-0.5%	-0.4	-2.7
Cc1ccc2c(c1)c1c(n2CC(O)CN2C(=O)CNC2=O)C(=O)CCC1 (configuration not stated)	1	12	-3	2.1%	0.4	4.2
O=C(N/N=C\c1cn(-c2ccccc2)nc1-c1ccccc1)c1ccc(Br)o1	1	-4	-9	3.0%	0.5	-2.4
C=C(C)Cn1c(SCC(=O)N/N=C/c2c(O)ccc3ccccc23)nc2ccccc2c1=O	3	42	-9	14%	1.5	-2.4
COC(=O)c1cc2occc2n1Cc1nc(-c2cccc(Br)c2)oc1C	·	-12	·	2.6%	-0.2	·
O=C(OCc1ccccc1)c1cccnc1Cl	-16	11	17	0.6%	-1.6	5.0
O=C(N/N=C/c1ccccn1)c1ccccc1	1	10	?	-2.9%	-0.5	-3.0
CC(C)CCCN1CCN=C1Nc1ccccc1	-15	-14	10	0.7%	-0.1	0.8
CN(C)c1ccc(N=Nc2nc3ccccc3n2C)cc1	-30	25	?	2.1%	4.0	-12
Cn1ccnc1SCC(=O)Nc1ccc2c(c1)OCO2	-11	-1	9	1.8%	0.2	-2.1
COCc1cc(C)nc(SCC(=O)Nc2cccc(C)c2C)c1C#N	-18	3	3	·	0.1	-0.7
Cc1cc(C)c(S(=O)(=O)N2CCCOC2CNC(=O)C(=O)NCc2ccncc2)c(C)c1 (configuration not stated)	3	0	6	-1.6%	-0.4	-1.2
Cc1ccc(N2C(=O)CS(=O)(=O)C23C(=O)N(Cc2ccc(Cl)cc2)c2ccccc23)cc1C (configuration not stated)	·	-12	·	-3.8%	0.9	·
COc1cc(C2C(C(=O)c3ccc(C)o3)=C(O)C(=O)N2c2cc(C)on2)ccc1OCc1ccccc1 (configuration not stated)	-6	15	4	-1.1%	0.3	-4.5
Cc1nn(CC(=O)Nc2ccccn2)c(C)c1Br	20	-20	0	0.7%	0.8	2.2
Cc1ccc2[nH]c(C(=O)N/N=C/c3ccccc3O)c(C)c2c1	22	13	2	1.3%	1.1	0.8
O=C(COc1ccccc1)NCC1COc2ccccc2O1 (configuration not stated)	-6	-13	11	-0.7%	-0.1	-3.1

Next part (five carried over from the part before).
SMILES	D2 potentiator	TRPML1 inh	Six1-Eya2 inh	PINK1 modulator	TRPML1 ag	D2 agonist
Cc1ccc(N2C(=O)CS(=O)(=O)C23C(=O)N(Cc2ccc(Cl)cc2)c2ccccc23)cc1C (configuration not stated)	·	-12	·	-3.8%	0.9	·
COc1cc(C2C(C(=O)c3ccc(C)o3)=C(O)C(=O)N2c2cc(C)on2)ccc1OCc1ccccc1 (configuration not stated)	-6	15	4	-1.1%	0.3	-4.5
Cc1nn(CC(=O)Nc2ccccn2)c(C)c1Br	20	-20	0	0.7%	0.8	2.2
Cc1ccc2[nH]c(C(=O)N/N=C/c3ccccc3O)c(C)c2c1	22	13	2	1.3%	1.1	0.8
O=C(COc1ccccc1)NCC1COc2ccccc2O1 (configuration not stated)	-6	-13	11	-0.7%	-0.1	-3.1
Cc1ccc(S(=O)(=O)N2CCn3cccc3C2C)cc1 (configuration not stated)	-5	-3	-6	0.7%	-0.6	-1.8
COc1ccc(CN2CCC(C)(Oc3ccc4c(c3)OCO4)C2)c2ccccc12 (configuration not stated)	-9	·	?	0.6%	-0.5	-4.1
Cc1ccc(C(C)C)c(OCCSc2nc(-c3ccccc3F)nc3cc(=O)[nH]n23)c1	·	-9	·	4.4%	-0.6	·
Cc1ccc(CNC(=O)c2cnc3ccccc3n2)cc1	-2	13	-2	0.0%	0.7	-2.6
Cc1c(Cl)cccc1NC(=O)CNC(=O)c1ccco1	-8	·	10	3.2%	·	1.2
COc1ccc(OC)c(C2C(C(=O)N3CCCCC3)=C(C)Nc3nc4ccccc4n32)c1 (configuration not stated)	·	-16	·	0.0%	-0.2	·
CC(Cc1ccc(Cl)cc1)N1CCC(n2nccc2NC(=O)C2CCCC2)CC1 (configuration not stated)	-7	23	2	0.3%	1.1	-1.3
O=C(Nc1ccncc1)c1cccc(S(=O)(=O)N2CCc3ccccc32)c1	-15	-4	-1	-2.5%	2.3	2.5
COCC(=O)Nc1ccc(S(=O)(=O)Nc2ccccn2)cc1	-1	4	1	0.0%	0.6	-0.5
Cc1cccc(NC(=S)N2CCC(N(C)CC3CCCO3)CC2)c1 (configuration not stated)	-1	17	-5	-0.9%	0.5	-0.3
CCOC(=O)C1CCCN(C(=O)CSc2nnc3nc(C)cc(C)n23)C1 (configuration not stated)	-4	-18	2	-1.6%	0.6	-3.9
COc1ccccc1Cn1c(=O)c2ccccc2n2c(SCC(=O)N3CCCCC3)nnc12	-14	-61*	6	0.8%	2.1	-0.7
O=C(OCc1nnc(-c2ccccc2)o1)c1cc2ccccc2cc1O	-1	9	-4	1.3%	2.4	-3.4
CCOC(=O)C(=O)N(C)c1c(CC)nc2c(OCc3ccccc3OC)cccn12	-4	·	-5	0.4%	-0.8	-5.0
Cn1ncc2c(=O)n(/N=C/c3ccccc3)cnc21	-9	8	6	2.0%	1.1	0.8
COc1ccc(-c2cc(C(F)(F)F)nc(-n3nc(C(F)(F)F)cc3C)n2)cc1	·	53	·	2.1%	-0.2	·
O=C(O)Cc1ccc(NC(=O)Nc2cccc(Cl)c2)cc1	-4	7	2	0.2%	-0.5	-0.5
COc1ccc(NC(=O)CSc2nnc(CNC(=O)c3ccco3)n2-c2ccccc2OC)cc1	-13	-6	0	0.5%	0.5	-2.3
COc1ccc([N+](=O)[O-])cc1NC(=O)COC(=O)c1ccccc1C(=O)c1ccccc1	-6	7	16	-0.7%	0.6	-3.9
CCc1ccccc1NC(=O)C/C(C)=N/NC(=O)COc1ccccc1C	-8	18	-2	0.3%	-0.7	-1.3
COc1ccc(C(=O)NN2CC(O)=C(c3nc4ccccc4n3C)C2=N)cc1OC	-2	-3	7	2.4%	0.8	1.1
O=C(Nc1ncccc1O)c1ccc(S(=O)(=O)N2CCCC2)cc1	19	10	-7	3.5%	0.1	-3.5
COc1ccc(OC)c(/C=C/C(=O)Oc2ccc(C(C)=O)cc2)c1	6	12	-23	3.0%	0.7	6.3
CCCOc1cccc(C(=O)N(Cc2ccccc2)C2CCS(=O)(=O)C2)c1 (configuration not stated)	0	4	-1	2.5%	-1.6	-4.9
CC(=O)N1CCc2cc(C(=O)CN3CCN(C(=O)c4ccco4)CC3)ccc21	-5	8	-3	2.1%	0.0	-8.3
COC(=O)[C@H]1C[C@@H]1[C@H](NC(=O)[C@H]1C[C@@H]1[C@H](NC(=O)OCc1ccccc1)c1ccccc1)c1ccccc1	-3	-2	0	0.7%	0.9	4.5
O=C(CCc1ccccc1)Nc1ccc(N2CCCCC2)cc1	-11	-6	-13	11%	0.8	-1.9
O=S(=O)(NCC1(N2CCOCC2)CCCCC1)c1ccccc1Cl	-8	-5	7	-6.2%	0.0	0.4
